Vaccinia Venus – vaccinia inhibition (Venus reporter). Vaccinia virus Venus reporter expression, fluorescence. Potency, µM (series often up to 36.5 µM), inactives show at the highest dose activity change, negative = inhibition, most hits filed as inhibitors. 0.46% of 330,000 active. AID 720580; active means well fitted inhibition curve with a large enough effect; inconclusive means small, poorly fitted or top-dose-only effect; inactive means no such curve, though single readings can be large or run the other way; tested in A549 cells; further: nearly all actives have a fitted effect of over 30% in size; inactives centre near -10
Vaccinia mCherry – vaccinia inhibition (mCherry reporter) | Vaccinia virus mCherry reporter infection, fluorescence; about a quarter of the inactives have no number | Potency, µM (doses to about 36.5 µM), for the others: top-dose activity change, negative = inhibition, hits mostly inhibitors | 0.63% of 310,000 active | AID 720579; active = well fitted inhibition curve with a large enough effect; inconclusive = small, poorly fitted or top-dose-only effect; inactive = no such curve, though single readings can be large or run the other way; tested in A549 cells; further: nearly all actives have a fitted effect of over 35% in size; inactives centre near -10
An asterisk follows results filed as active; i = inactive; ? = inconclusive; / = no result given; & = joins results of further samples; [ ] = dose if it differs, or a comment. On the % scale 0 is the no-effect control and ±100 the full control effect; potency means the concentration at half of the fitted maximal effect.

SMILES	Vaccinia Venus	Vaccinia mCherry
NS(=O)(=O)c1cccc(NC(=O)CNC(=O)CC23CC4CC(CC(C4)C2)C3)c1	-9%	i
COc1ccc(/C=C/C(=O)Nc2ccccc2C(=O)NCC(c2ccc(OC)cc2)N(C)C)cc1 (stereo not drawn)	-28%	?
Cc1ccccc1NC(=O)c1ccc(Cl)c(S(=O)(=O)N2CCCCCC2)c1	-14%	-13%
CCCc1cc(=O)[nH]c(SCC(=O)N(CC)C2CCS(=O)(=O)C2)n1 (stereo not drawn)	-14%	i
CCn1c(O)c(/C=N/N=C2CCCCC2)c2cc(C3=NNC(=O)CC3)ccc21	5%	i
COc1cc(-c2noc(-c3ccc(N(C)C)c([N+](=O)[O-])c3)n2)cc(OC)c1OC	-13%	-9%
O=C(OCc1ccccc1)N1CCC2CC1c1ccc(-c3ccc4c(c3)OCO4)cc12 (stereo not drawn)	-13%	-6%
CC(=O)Nc1ccc(C=Cc2ccc([N+](=O)[O-])cc2)cc1	11%	-2%
COc1ccc(CN2CCNC(=O)C2CC(=O)NCC(C)(C)N2CCOCC2)cc1C (stereo not drawn)	-18%	-3%
COc1ccc(CNC(=O)COC(=O)c2ccco2)cc1	-5%	-13%
O=C(CSc1cccc(C(F)(F)F)c1)N1CCN(S(=O)(=O)c2ccccc2)CC1	-12%	-5%
Cc1ccc(N)c(C(=O)c2ccccc2)c1	-5%	i
O=S(=O)(c1cccc2cccnc12)N1CCN(c2ccccn2)CC1	-9%	0%
CC(NS(=O)(=O)OCC(Cl)(Cl)Cl)c1ccccc1 (stereo not drawn)	-11%	-9%
Cc1ccc2cccc([N+](=O)[O-])c2n1	-4%	i
CCOc1ccc(Nc2nc(C)cc(C)c2C#N)cc1	5%	-7%
Cc1cccc(C)c1NC(=O)C1c2ccccc2OCC(=O)N1CCCN1CCOCC1 (stereo not drawn)	-3%	3%
COc1ccc(Cl)cc1NC(=O)Cn1c(=O)oc2cc(S(=O)(=O)N3CCCCCC3)ccc21	-23%	-23%
Cc1ccccc1NC(=O)C(=O)N/N=C/c1cccc(Br)c1	-11%	-10%
Cc1cc(Sc2ncnc(N)c2[N+](=O)[O-])ncn1	-11%	i
COc1ccc(Cl)cc1N(CC(=O)Nc1ccc2c(c1)OCO2)S(C)(=O)=O	-2%	-9%
COc1ccc(N2Cc3cccc(C(=O)Nc4ccc(F)cc4)c3C2=O)cc1	?	?
O=C(O)c1ccc2cccnc2n1	12%	i
Cc1cn(C)c(CC(=O)NCc2ccccc2)c1C(=O)O	-6%	-7%
COc1cccc(-c2nnc(SCc3ccccn3)n2C)c1	-3%	-9%

Three of the compounds above, with two lines to a compound.
Every second line gives: Vaccinia Venus | Vaccinia mCherry
COc1ccc(CN2CCNC(=O)C2CC(=O)NCC(C)(C)N2CCOCC2)cc1C (stereo not drawn)
→ -18% | -3%
COc1ccc(CNC(=O)COC(=O)c2ccco2)cc1
→ -5% | -13%
O=C(CSc1cccc(C(F)(F)F)c1)N1CCN(S(=O)(=O)c2ccccc2)CC1
→ -12% | -5%

The listing picks up, repeating the seven entries before the break.
SMILES	Vaccinia Venus	Vaccinia mCherry
Cc1ccccc1NC(=O)C(=O)N/N=C/c1cccc(Br)c1	-11%	-10%
Cc1cc(Sc2ncnc(N)c2[N+](=O)[O-])ncn1	-11%	i
COc1ccc(Cl)cc1N(CC(=O)Nc1ccc2c(c1)OCO2)S(C)(=O)=O	-2%	-9%
COc1ccc(N2Cc3cccc(C(=O)Nc4ccc(F)cc4)c3C2=O)cc1	?	?
O=C(O)c1ccc2cccnc2n1	12%	i
Cc1cn(C)c(CC(=O)NCc2ccccc2)c1C(=O)O	-6%	-7%
COc1cccc(-c2nnc(SCc3ccccn3)n2C)c1	-3%	-9%
COc1cc(CNC(=O)c2cc(-c3cc(Cl)ccc3OC)n[nH]2)cc(OC)c1	-7%	8%
O=C(NN1C(=O)/C(=C/C=C/c2ccco2)SC1=S)c1ccccc1O	15%	-1%
COc1ccc(Cc2c(-c3ccco3)nc3ccc(Br)cn23)c(C)c1	4%	12%
Cn1c(=O)c2c(ncn2CCCl)n(C)c1=O	-1%	i
COC(=O)c1cccc(C(=O)N2CCc3c(cnc(C)c3CNC(=O)c3ccsc3)C2)c1	13%	-7%
O=C(Nc1ccccc1C(=O)O)c1ccc(N2C(=O)C3CC=CCC3C2=O)cc1 (stereo not drawn)	-3%	-8%
CCCc1c(C(=O)N/N=C/c2ccoc2)nnn1-c1nonc1N	-2%	-2%
O=S(=O)(Nc1cccc2cccnc12)c1ccc(S(=O)(=O)N2CCCC2)cc1	-10%	-4%
C=C(C)C1CC=C(C)/C(=N\NC(=O)CNc2ccccc2OC)C1 (stereo not drawn)	-25%	?
O=C(Nc1cccc(Cl)c1)N1CC2CCCN2c2ccccc21 (stereo not drawn)	-9%	-12%
COc1ccc(-c2cc(=O)oc3cc(OC(C)C(=O)NCCCn4ccnc4)ccc23)cc1 (stereo not drawn)	8%	2%
O=C(Nc1ccncc1)c1cc(-c2ccccc2)nc2ccccc12	-17%	?
Cc1cccn2c(=O)c(C(=O)NCc3ccccc3Cl)c(O)nc12	-13%	-16%
COc1ccc(C(=O)O)cc1F	5%	-7%
CCN(CC)c1ccc(NC(=O)OC)cc1	15%	8%
CC1CCN(S(=O)(=O)c2ccc3[nH]c(=O)[nH]c3c2)CC1	-4%	-19%
OCc1nc2ccccc2n1Cc1ccc(Cl)cc1	-10%	i
C=CC1=C(C)C2=CC3=NC(=C(CC(=O)[O-])C4=NC(=C(C)C4=C([O-])[O-])C=c4[n-]c(c(C)c4CC)=CC1=N2)C(CCC(=O)[O-])C3C.[Cu+2].[Na+].[Na+].[Na+] (stereo not drawn)	-6%	-18%
C[C@H]1CN=C(Nc2ccccc2)N1CC1CCCCCC1	-11%	i
O=C(c1ccccc1)c1ccc2nc(Nc3ccccc3)c3nncn3c2c1	-8%	?
Cc1ccc2nc(-c3ccncc3)cc(C(=O)NCCc3ccc(F)cc3)c2c1	-6%	-8%
CCOc1c2ccc(C(=O)NCCc3ccc(C)cc3)cc2nn1CC	-11%	-18%
COc1ccc(C)cc1NC(=O)c1cccn(Cc2cccc([N+](=O)[O-])c2)c1=O	-16%	-3%
O=C(C1CCCN(S(=O)(=O)c2ccc(F)cc2)C1)N1CCCCC1 (stereo not drawn)	-14%	-2%
Cc1ccc(C(=O)NCC(=O)NCC(c2cccs2)N2CCOCC2)cc1C (stereo not drawn)	-6%	-14%
Remaining list, next part
SMILES	Vaccinia Venus	Vaccinia mCherry
COc1ccccc1C1N=C(c2ccccc2C)NO1 (stereo not drawn)	1%	?
S=C(Nc1ccc(Nc2ccccc2)cc1)N1CCN(c2ncccn2)CC1	2%	10%
COCCCNC(=O)CS(=O)Cc1nc(-c2cccc(C)c2)oc1C (stereo not drawn)	-5%	-11%
COC(=O)c1ccc(CN2C(=O)NC3(CCC(C)CC3)C2=O)o1 (stereo not drawn)	-8%	/
CCOc1ccc(C2=C(C=Nc3c(C)n(C)n(-c4ccccc4)c3=O)C(c3ccc(F)cc3)c3ccccc3O2)cc1 (stereo not drawn)	0%	-11%
Cc1cccc(C)c1NC(=O)CSc1ncnc2[nH]ncc12	-19%	?
Cc1ccc(S(=O)(=O)N2CCOCC2)cc1NC(=O)c1cc([N+](=O)[O-])ccc1N1CCOCC1	-14%	i
CCCc1n[nH]c(=O)c2c1nnn2Cc1ccccc1F	-7%	i
CCN=C(Nc1ccc2c(c1)OCO2)SC1CC(=O)N(c2ccccc2F)C1=O (stereo not drawn)	2%	-8%
O=C1C=C(c2cccc(Cl)c2)C[C@@H](c2ccc(F)cc2)C1	-12%	-5%
Cc1cccc(Nc2cc(C)c3c(O)cccc3n2)c1C	?	14µM*
O=S(=O)(c1ccccc1Cl)N1CCN(c2nc(-c3cccs3)nc3ccccc23)CC1	-19%&-14%	-21%
CCN(CC(=O)Nc1cc(Cl)ccc1C)C(=O)CCOc1ccc(C)cc1	?	?
COc1ccc(NC(=O)NCCCCc2ccccc2)cc1OC	-10%	-1%
Cc1ccc(NC(=O)c2cnc3cc(C)ccn3c2=O)c(C)c1	2%	-10%
C[n+]1c(/C=C/c2ccc(N)cc2)sc2ccccc21	16%	-12%
CN(c1ccc(O)cc1)c1ccc([N+](=O)[O-])c2nonc12	-18%	?
Cc1nn(Cc2ccccc2)c(C)c1C(=O)OCC(=O)c1cc(C)n(CC(F)(F)F)c1C	?	?
Cc1cc(NC(=O)CCl)no1	?	?
Cc1cc(C)nc(Nc2nc(C(N)Cc3ccc(F)cc3)cs2)n1 (stereo not drawn)	?	?
COc1ccc(C)cc1S(=O)(=O)Nc1cccc(Cl)c1Cl	-7%	-10%
CN(C)c1ccc(C=C(C#N)C(=O)c2ccccc2)cc1Br	-8%	i
Cc1ccc(C(=O)C2=C(O)C(=O)N(c3ncccn3)C2c2ccc(Cl)cc2)o1 (stereo not drawn)	-6%	/
NC(=O)C1CCN(c2oc(-c3cccs3)nc2S(=O)(=O)c2ccc(Br)cc2)CC1	-11%	i
CC1CCN(c2ccc(N3C(=O)C4CCCCC4C3=O)cc2[N+](=O)[O-])CC1 (stereo not drawn)	-6%	-11%

Three compounds from above, ordered by count of non-hydrogen atoms, ascending.
SMILES	Vaccinia Venus	Vaccinia mCherry
Cc1cccc(C)c1NC(=O)CSc1ncnc2[nH]ncc12	-19%	?
NC(=O)C1CCN(c2oc(-c3cccs3)nc2S(=O)(=O)c2ccc(Br)cc2)CC1	-11%	i
O=S(=O)(c1ccccc1Cl)N1CCN(c2nc(-c3cccs3)nc3ccccc23)CC1	-19%&-14%	-21%

(cont.)
SMILES	Vaccinia Venus	Vaccinia mCherry
COP(=S)(OC)c1c(C)nn(CCC#N)c1NC(=O)c1ccc(Cl)cc1	-4%	-1%
Cc1cc(C(=O)COC(=O)CNC(=O)c2ccc(F)cc2)c(C)n1Cc1ccco1	-2%	0%
CC(=O)N(c1ccc(N(C(C)=O)S(=O)(=O)c2ccccc2)cc1)S(=O)(=O)c1ccccc1	-24%	i
Cc1ccccc1CN(c1ccc(C(=O)N2CCN(C)CC2)cc1)S(C)(=O)=O	-10%[7.34 µM]	i[7.34 µM]
Cc1nc2ccccc2c(=O)n1/N=C/c1c(O)ccc2ccccc12	?	13µM*
Cn1c(COc2ccccc2)nnc1SCC(=O)NCc1ccccc1	-10%	i
O=C(NC1CCCC1)C(c1ccccn1)N(Cc1ccccc1F)C(=O)c1csnn1 (stereo not drawn)	-5%	-18%
O=C(COc1ccccc1/C=C\c1nc(O)c([N+](=O)[O-])c(=O)[nH]1)Nc1ccccc1	1%	-1%
COc1ccc(N2CCN(C(=O)C(Cc3ccccc3)NC(=O)c3ccccc3)CC2)cc1 (stereo not drawn)	-13%	i
COc1ccc(C(NC(=O)C2CCN(CCOc3ccc(Cl)cc3Cl)CC2)c2ccccc2C)cn1 (stereo not drawn)	-16%	-8%
O=C(NCc1ccco1)C1CCN(C(=O)N2CCOc3ccccc32)CC1	-11%	-8%
Cc1ccc(C(=O)NNC(=O)C2CCN(c3nc(C)cc(C)n3)CC2)cc1	-19%	-23%
COc1ccc(CCNC(=O)C(=O)Nc2ccc(C)cc2)cc1OC	-1%	-10%
COc1ccc(NC(=O)c2cc(C)cc(C)c2)cc1[N+](=O)[O-]	-21%	-12%
Cn1c(=O)c2c([nH]c(=S)n2Cc2ccc(Cl)cc2)n(C)c1=O	2%	i
CC(C)N1CCN(Cc2cn[nH]c2C2CCCCC2)CC1CCO (stereo not drawn)	6%	-9%
CO/N=C/NC(=O)c1c(OC)ccnc1Oc1ccc(Cl)cc1	-9%	-16%
CCOC(=O)C1CCCCN1Cc1cccc(Oc2ccccc2)c1 (stereo not drawn)	-17%	?
COc1cccc(C(=O)NCC(=O)OCc2cc(=O)n3c(C)csc3n2)c1	-9%	-4%
Cc1cc(C)n(-c2nc3ccccc3[nH]c2=O)n1	-15%	-12%
Cc1ccc(C)c(CN2C(=O)c3ccccc3S(=O)(=O)c3ccc(C(=O)N4CCOCC4)cc32)c1	-6%	-4%
Nc1nc(CSc2nc3ccccc3s2)nc(N2CCOCC2)n1	-10%	-6%
CCN1CCN(C(=S)Nc2sc(C)c(-c3ccccc3)c2C(=O)OC)CC1	-16%	-24%
O=C(CCCN1C(=O)/C(=C/c2ccccc2)SC1=S)Nc1cccc(O)c1	?	?
O=C1/C(=C\c2ccco2)SC(=S)N1c1ccc(O)cc1	-4%	-14%
More compounds:
SMILES	Vaccinia Venus	Vaccinia mCherry
COc1cccc(-c2cnc(C(O)c3ccc(-c4ccccc4)cc3)[nH]2)c1 (stereo not drawn)	-2%	i
O=C(O)CCN1C(=O)/C(=C\c2ccc(-c3nc4ccccc4s3)o2)SC1=S	5%	/
CCOc1ccc(NS(=O)(=O)c2ccc3[nH]c(=O)c(=O)[nH]c3c2)cc1	-3%	-5%
CCOC(=O)[C@H]1[C@H]2COc3ccc(Cl)cc3[C@@H]2N2C(=O)CN(Cc3ccc(F)cc3)C(=O)[C@@]12C	-23%	i
O=C(NNC(=S)NC(=O)c1ccccc1)c1cccc([N+](=O)[O-])c1	-10%	-21%
CCOC(=O)c1c(-c2cccc([N+](=O)[O-])c2)csc1NC(=O)CCCOc1ccccc1OC	-26%	/
c1cncc(-c2csc(NCc3ccco3)n2)c1	-17%	-4%
COCCn1c(=NC(=O)CCS(=O)(=O)c2ccccc2)sc2cc(C)ccc21	-6%	-11%
O=c1c2ccccc2nc2n1CCc1c-2[nH]c2ccccc12	?	-24%
Cc1noc(C)c1S(=O)(=O)N1CCCC(C(=O)Nc2nccs2)C1 (stereo not drawn)	-10%	-14%
COc1ccc(NC(=O)CSCC(=O)N(C)CC(=O)Nc2ccc(Cl)c(C(F)(F)F)c2)cc1	-6%	-2%

Screening results (PubChem BioAssay)
